D2 ag: activates the human D2 dopamine receptor. AID 624465. activation, % (concentration not given with the values). DiscoveRx PathHunter D2 beta-arrestin, luminescence, 90 min; 100% = 57 uM dopamine signal. actives 0.084% (n = 360,000). P14416; in the data active = activation above about 40%; inconclusive = about 15% to 40%; inactive = below about 15%; note: compound concentration not given in the record; the text of the record calls up to 30% inactive
Target sequence (P14416 whole entry, looked up): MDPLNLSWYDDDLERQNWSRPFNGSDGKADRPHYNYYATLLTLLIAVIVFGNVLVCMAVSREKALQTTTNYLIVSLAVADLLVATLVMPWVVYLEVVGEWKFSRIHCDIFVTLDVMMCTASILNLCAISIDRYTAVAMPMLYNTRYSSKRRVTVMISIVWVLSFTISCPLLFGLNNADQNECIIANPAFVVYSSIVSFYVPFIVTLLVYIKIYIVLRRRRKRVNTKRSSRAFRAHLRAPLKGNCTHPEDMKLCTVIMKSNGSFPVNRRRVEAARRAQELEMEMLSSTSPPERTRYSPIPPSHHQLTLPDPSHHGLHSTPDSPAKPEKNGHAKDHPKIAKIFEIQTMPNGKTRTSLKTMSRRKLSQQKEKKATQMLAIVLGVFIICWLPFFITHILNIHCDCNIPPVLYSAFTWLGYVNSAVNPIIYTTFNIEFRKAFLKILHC
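DiscoveRx PathHunter D2 beta-arrestin cells (2,100/well) attached overnight, then compound-stimulated 90 min at 37 C in HBSS/10 mM HEPES/0.1% Tween-20 buffer; beta-galactosidase complementation read by luminescence after 1 h at ambient temperature. Dopamine 57 uM final (EC100) as control.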
gsp ag: activates gsp, the McCune-Albright syndrome mutation; gsp mutant cells, cAMP HTRF, 30 min; control for the full effect not named in the record; Potency, µM (titrated, usually from 76.9 µM), for the others: at the highest dose activation (cAMP increase), hits mostly activators; actives 0.13% (n = 340,000); active = well fitted activation curve with a large enough effect; inconclusive = small, poorly fitted or top-dose-only effect, or another doubt; inactive = no such curve, though single readings can be large or run the other way; cell line not stated here;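 note: phosphodiesterase inhibitor Ro 20-1724 added with compounds to block cAMP breakdown; potency is the fitted concentration of half-maximal effect; nearly all actives have a fitted effect of over 60% in size; about a fifth of the inactives were tested at one dose only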
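Cells stably selected in G418 were plated at 2000/well, grown 16-24 hr, then given compounds in DMSO with the PDE inhibitor […] (300 uM solution added) for 30 min at 37C; cAMP was read by HTRF.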
gsp antag: antagonizes gsp, the McCune-Albright syndrome mutation; gsp-mutant cells, cAMP HTRF, 30 min; control for the full effect not named in the record; Potency, µM (doses to about 76.9 µM), for inactives: at the top dose activity change, negative = inhibition, actives largely listed as inhibitors; actives 0.4% (n = 340,000); active = falling curve of any shape with a large fitted effect; inconclusive = falling curve, mostly with a smaller effect; inactive = flat or rising curve; cell line not stated here;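 note: intracellular cAMP measured with PDE inhibitor Ro 20-1724 present during compound exposure; potency is the fitted concentration of half-maximal effect; % is set by controls: 0 for no effect and ±100 for the full control effect; nearly all actives have a fitted effect of over 65% in size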
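Measurement of cellular cAMP by homogeneous time-resolved fluorescence following a 30 min compound exposure at 37C. The PDE inhibitor […] was present throughout; the assay buffer was DPBS with 0.05% BSA and 0.005% Tween 20.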
Menin MLL FP FL: inhibitors of human menin-MLL interaction, wild-type MLL peptide | Fluorescence polarization, fluorescein-MLL peptide displacement from menin | FP activity change, % at 61.4 µM | 290,000 tested, under 10 active; inconclusive = falling polarisation curve, or a change in total fluorescence; inactive = total fluorescence flat and polarisation flat or rising; no compound was filed as active; the % refers to the polarisation; negative = inhibition;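 note: % of control where 0% means no effect; inhibitors lower the polarisation; unlabelled MLL peptide was the positive control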
PINK1 modulator: PINK1 expression modulation | PINK1 immunofluorescence, high-content cytometry, 24 h | actives 0.2% (n = 410,000) | Potency, µM (doses to about 76.6 µM), without a hit: top-dose activation (PINK1 increase), most hits filed as activators; active = well fitted activation curve with a large enough effect; inconclusive = small, poorly fitted or top-dose-only effect; inactive = flat fitted curve, though single readings scatter; cell line not stated here;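 note: potency is the fitted concentration of half-maximal effect; % of control where 0% means no effect; nearly all actives have a fitted effect of over 65% in size; a mitochondrial uncoupler was the plate control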
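A stable cell line was treated with compounds at 5 concentrations for 24 hours, with CCCP as control. PINK1 levels and mitochondrial localization were measured by immunofluorescence with mitochondrial, cell and nuclear markers after fixation, read by laser-scanning cytometry.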
Sfp inh: inhibitors of Bacillus subtilis Sfp phosphopantetheinyl transferase; Potency, µM, inactives show max response, negative = inhibition, hits mostly inhibitors; actives 3.5% (n = 310,000); Q9F4F7; Biochemical Sfp PPTase activity, qHTS; active = well fitted inhibition curve with a large enough effect; inconclusive = small, poorly fitted or top-dose-only effect, or another doubt; inactive = no such curve, though single readings can be large or run the other way;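 note: the enzyme is Sfp with the accession as filed and its product quenches rhodamine fluorescence; potency is the fitted concentration of half-maximal effect; 0% = enzyme reaction without inhibitor and -100% = no enzyme wells; top concentration of the series not given in the record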
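With Hepes-Na pH 7.6 buffer containing 10 mM MgCl2, Sfp (15 nM) modified BHQ-2-YbbR (12.5 uM) using rhodamine-CoA (5 uM). Two reads 30 minutes apart at 525/598 nm yielded each well's rate.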
ClpP mod: qHTS Assay for Activators of ClpP; AID 651965, 2013; ATP-dependent Clp protease proteolytic subunit (Bacillus subtilis (strain 168)), P80244; actives 1.9% (n = 340,000); purified B. subtilis ClpP, FRET peptide cleavage, 20 min; Potency, µM (series often up to 57.5 µM), without a hit: at the top dose activity change, negative = active; active = well fitted falling curve with a large enough effect; inconclusive = small, poorly fitted or top-dose-only effect; inactive = no such curve, though single readings can be large or run the other way; note: potency is the fitted concentration of half-maximal effect; the source files actives as falling curves though it sought activators and does not explain the sign; nearly all actives have a fitted effect of over 65% in size; many hits overshoot -100%
Target sequence (P80244 whole entry, looked up): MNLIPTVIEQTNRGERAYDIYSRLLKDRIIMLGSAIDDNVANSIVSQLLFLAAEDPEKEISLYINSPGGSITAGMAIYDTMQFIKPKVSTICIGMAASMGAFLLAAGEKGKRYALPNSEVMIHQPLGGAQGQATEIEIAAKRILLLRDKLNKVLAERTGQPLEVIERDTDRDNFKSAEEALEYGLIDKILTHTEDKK
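FRET quenching reversal measured ClpP activation: 10 microg/mL B. subtilis ClpP at pH 8 with the FRET-FV decapeptide, read at 430 nm after 320 nm excitation. The 20-min minus 0-min signal was scaled between DMSO/no-enzyme wells and ADEP (5.8 microM final).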
* = called active by the depositor; ? = inconclusive; . = not tested or not shown; & = joins results of further samples; [ ] = remark or other dose. Rows are unselected. Share with any hit: about 5.1%.

SMILES	D2 ag	gsp ag	gsp antag	Menin MLL FP FL	PINK1 modulator	Sfp inh	ClpP mod
O=C(COc1ccc2c(c1)OCO2)NCc1cccs1	-1.0	22%[15.4 µM]	3%	.	1.7%	.	-2.3%
O=C(O)CCC(=O)N1CCc2c([nH]c3ccccc23)C1C(F)(F)F (stereo not drawn)	3.6	-38%[inhibitor]	7%	-2.9	0.6%	0%	-1.6%
O=C(COC(=O)COc1ccccc1)Nc1ccccc1OC(F)F	-3.2	-5%	-6%	-1.5	-0.1%	-4%	0.4%
N=c1sccn1CC(=O)Nc1cc(S(=O)(=O)N2CCCC2)ccc1Cl	-1.3	-9%[15.4 µM]	7%	-0.8	2.8%	13%	.
Cc1cc(C)nc(SC2CCCCC2O)n1 (stereo not drawn)	-1.4	1%	1%	-0.4	.	20%	-1.0%
CCOC(=O)c1[nH]c2cc3c(cc2c1NC(=O)CN1CCC(C)CC1)OCO3	-3.3	7%	-7%	5.3	0.3%	1%	11µM*
COCCN(C(=O)COC(=O)Cc1cccc(OC)c1)c1c(N)n(CC(C)C)c(=O)[nH]c1=O	-4.3	-3%	-15%	.	1.4%	.	-0.9%
N/C(CSc1ccc(Cl)cc1)=N\NC(=O)c1ccncc1	-1.8	-17%[15.4 µM]	9%	1.6	-1.1%	9%	.
C[C@@]12C(=O)Nc3ccc(Cl)cc3C(=O)N1[C@H]1c3cc(Br)ccc3OC[C@@H]1[C@@H]2c1ccccc1	-0.8	23%	-8%	.	2.7%	.	-9.1%
Nc1cc(=O)[nH]c(SCc2ccc(Cl)cc2)n1	1.4	-23%	-12%	-2.1	3.0%	-6%	-0.2%
O=[N+]([O-])c1cccc(CSc2nnc(Cc3ccccc3)n2-c2ccc(F)cc2)c1	-3.0	-11%	-23%	4.4	5.3%	2%	1.2%
Fc1ccccc1COc1ccc(C(=S)N2CCCC2)cc1	-0.6	-41%[inhibitor]	-1%	-1.1	2.2%	10%	-0.3%
O=C(CNC(=O)c1ccccc1Br)NCC(c1ccco1)N1CCCCC1 (stereo not drawn)	-2.1	13%	-14%	.	-3.6%	.	-5.2%
COCCNC(=O)C1(C)CCCN(C(=O)c2ccc(C(F)(F)F)cc2)C1 (stereo not drawn)	-6.2	.	.	.	0.0%	.	0.0%
CC(=O)NNC(=O)c1nc(-c2ccccc2)c(C)o1	-5.6	23%	6%	1.9	3.1%	-22%	-10%

The closing 4 records of the section above open the next one:
SMILES	D2 ag	gsp ag	gsp antag	Menin MLL FP FL	PINK1 modulator	Sfp inh	ClpP mod
Fc1ccccc1COc1ccc(C(=S)N2CCCC2)cc1	-0.6	-41%[inhibitor]	-1%	-1.1	2.2%	10%	-0.3%
O=C(CNC(=O)c1ccccc1Br)NCC(c1ccco1)N1CCCCC1 (stereo not drawn)	-2.1	13%	-14%	.	-3.6%	.	-5.2%
COCCNC(=O)C1(C)CCCN(C(=O)c2ccc(C(F)(F)F)cc2)C1 (stereo not drawn)	-6.2	.	.	.	0.0%	.	0.0%
CC(=O)NNC(=O)c1nc(-c2ccccc2)c(C)o1	-5.6	23%	6%	1.9	3.1%	-22%	-10%
O=C(O)c1ccccc1C(=O)Nc1cc(C(F)(F)F)ccc1N1CCCC1	-1.7	-3%	-19%	3.4	4.0%	-1%	.
COc1ccc(S(=O)(=O)N(C)c2ccc(C(=O)Nc3cccnc3)cc2)cc1	2.7	-21%	?	-3.3	-1.8%	6%	1.6%
CCCNC(=O)Cn1nc([N+](=O)[O-])c([N+](=O)[O-])c1C	1.1	-14%	5%	4.2	-2.7%	4%	-2.5%
CCn1c(=O)c(C(=O)Nc2ncccc2C)c(O)c2ccccc21	-2.2	-25%[15.4 µM]	8%	3.8	3.5%	11%	.
CC(C)(O)C(=O)NN(C(=O)c1ccccc1)c1ccc2ccccc2c1	-2.7	-12%	-2%	-3.0	4.7%	15%	-3.3%
COCCCNC(=O)C[C@H]1C[C@H](C(=O)N2CCCCC2)[C@@]2(C)c3[nH]c4ccc(Cl)cc4c3CCN2C1=O	-2.9	.	-5%	.	0.8%	.	2.8%
O=C(OCCOc1cccc(Cl)c1)c1cc(S(=O)(=O)N2CCOCC2)ccc1F	3.3	-4%[15.4 µM]	-1%	.	0.6%	.	0.4%
COc1ccc([N+](=O)[O-])cc1-c1[nH]c(-c2ccc(C(=O)O)cc2)nc1-c1ccccc1	-4.5	?	-7%	-1.3	2.7%	21%	-2.5%
COc1ccc(CCNC(=O)Cn2cnc3c(cnn3-c3ccccc3Cl)c2=O)cc1OC	-1.5	3%	-2%	1.6	?	22%	0.8%
COC(=O)c1ccc(C(=O)OC)c(NC(=O)Cc2cccs2)c1	0.3	19%	.	.	0.5%	.	-20%
Nn1cnc2scc(-c3cccs3)c2c1=O	-5.5	5%	1%	0.3	-1.3%	7%	.
CCN=C1SC(CC(=O)NCCc2ccc(OC)cc2)C(=O)N1CC (stereo not drawn)	-0.3	-1%	10%	-0.2	-0.3%	1%	-1.9%
COc1ccc(NS(=O)(=O)c2cccc(C(=O)N/N=C(/C)c3ccc(-n4ccnc4)cc3)c2)cc1	1.1	?	17%	.	14%	.	.
Cc1ccc(NS(=O)(=O)c2ccc(NC(=O)c3cccc(NC(=O)C(C)C)c3)cc2)cc1	-3.2	3%	-7%	4.2	6.2%	10%	-6.0%
c1ccc(-c2cc3c(N4CCCC4)ncnc3s2)cc1	-3.1	-12%[15.4 µM]	-1%	-1.3	5.3%	-10%	.
COc1ccc(/C=C/C(=O)C2CC2)cc1Cn1nc(C)c([N+](=O)[O-])c1C	1.5	1%[15.4 µM]	?	1.9	1.5%	1%	.
O=C(CCN1CCOCC1)N1CCc2c([nH]c3ccccc23)C1c1cccc(Cl)c1 (stereo not drawn)	-3.1	5%[15.4 µM]	-26%	-1.2	1.4%	-4%	.
O=C(CSCc1cccc(Br)c1)N=Nc1c(O)[nH]c2ccccc12	-1.2	-24%	-19%	0.0	0.8%	-9%	-0.7%
Cn1c(CNC(=O)c2cccs2)nnc1SCC(=O)Nc1ccccc1	-0.3	14%	-13%	2.2	-0.5%	14%	0.0%
Cc1ccc(Cn2ccc(NC(=O)c3nn(C)cc3[N+](=O)[O-])n2)cc1	-0.1	-8%[15.4 µM]	24%	-0.9	-4.1%	7%	-6.2%
CC(=O)Nc1ccc(C(=O)NNC(=O)c2ccccc2-n2cccc2)cc1	-1.8	7%	7%	.	0.8%	.	0.4%
Cc1oc(-c2ccc(Cl)cc2)nc1CN1CCCN(C(=O)c2ccco2)CC1	-2.9	-29%	-20%	0.6	-2.4%	-4%	-4.8%
CCc1nn(CC(=O)N2CCN(C)CC2)c(=O)c2cccn12	-3.5	-10%	9%	-7.3	-0.6%	3%	-1.6%
O=C(/C=C/c1ccc(Cl)c([N+](=O)[O-])c1)Nc1cccnc1	3.1	0%	-14%	5.6	-0.6%	6%	-1.6%
Cc1ccc(Nc2nc(N)nc(CSc3nccn3C)n2)cc1	-1.9	0%	-17%	3.6	-0.6%	-2%	-1.0%
COc1cc(/C=N/NC(=O)C(N)=O)ccc1OCC(=O)N1C(C)CCCC1C (stereo not drawn)	-4.3	6%[15.4 µM]	-16%	2.9	1.0%	7%	.
N#CC1=C(N)N=C(SCc2cccc3ccccc23)C(C(N)=O)C12CCCCC2 (stereo not drawn)	-5.6	7%	2%	1.2	0.9%	0%	-1.6%
CC1CN(CCOc2ccccc2[N+](=O)[O-])CC(C)O1 (stereo not drawn)	5.1	20%	5%	-2.3	-2.2%	-26%	.
Cc1ccc(/C=N/N=C2/NC(=O)C(CC(=O)N3CCOCC3)S2)cc1 (stereo not drawn)	-1.3	11%	-7%	0.1	0.3%	40µM*	0.0%
CCCc1nnc(NC(=O)C2CCCO2)s1 (stereo not drawn)	-4.0	-33%	5%	-1.2	54%[38.3 µM]	16%	1.7%
Cc1ccc(-c2csc3ncnc(Nc4ccc(N5CCOCC5)cc4)c23)cc1	-6.5	-50%[inhibitor]	-10%	-0.4	-1.7%	?	-9.5%
COc1cc(OC)c(OC)cc1/C=N/Nc1ccc(Cl)nn1	1.1	-3%[15.4 µM]	-14%	-0.3	4.5%	-11%	-1.2%
COc1ccc(OCc2nnc(SC(C)C(=O)Nc3nccs3)n2-c2ccccc2)cc1 (stereo not drawn)	0.9	-16%	-29%	-2.1	2.3%[38.3 µM]	5%	-0.1%
CCCNC(=O)c1ccc(COc2ccc(Cl)cc2)o1	-0.5	24%	-4%	-0.3	0.1%	-10%	0.0%
Cc1ccccc1OCC(=O)Nc1nnc(COc2ccccc2)s1	-0.5	-4%	7%	.	1.4%	.	0.6%
COc1ccccc1Nc1nc(C)cs1	-1.0&-1.8	5%&16%	-7%&1%	15&3.2	0.8%&0.5%	45µM*	-4.3%&-0.4%
O=C(CN1C(=O)NC(c2ccccc2)(c2ccccc2)C1=O)NCc1ccc(F)cc1	?	-15%	-5%	.	-0.3%	.	-0.1%
Cc1ccc(/C=N/NC(=O)Cc2ccc(O)cc2)s1	-1.3	4%	3%	0.2	0.5%	16%	-2.8%
COc1ccc(Cc2cnc(N)s2)cc1	-1.1	-17%	9%	-5.4	-0.2%	12%	.
COc1cc(/C=N/NC(N)=O)cc(Br)c1OCc1ccc(C)cc1	-5.5	9%	8%	5.8	0.0%	18%	0.9%
COc1cccc(C(=O)NC(=S)Nc2nnn(C)n2)c1	-10	-1%	5%	3.0	0.1%	50µM*	1.8%
CC(=O)Nc1sc2c(c1C#N)CCCCC2	-2.4	13%	-6%	-1.5	-0.7%	-6%	0.5%
Clc1c(CSc2nc3ccccc3o2)nc2sccn12	-2.2	8%	-6%	2.3	7.3%[38.3 µM]	-2%	-0.3%
CN(C)c1ccc(/C=C(/NC(=O)c2ccccc2)C(=O)NCCN2CCOCC2)cc1	-1.3	0%	-24%	.	1.1%	3%	-0.7%

Source: PubChem BioAssay (National Center for Advancing Translational Sciences (NCATS))
